Sfp inh: Sfp phosphopantetheinyl transferase inhibition; Q9F4F7; Biochemical Sfp PPTase activity, qHTS; Potency, µM, for the others: max response, negative = inhibition, hits mostly inhibitors; 310,000 compounds, 3.5% hits; active = well fitted inhibition curve with a large enough effect; inconclusive = small, poorly fitted or top-dose-only effect, or another doubt; inactive = no such curve, though single readings can be large or run the other way;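 also: the enzyme is Sfp with the accession as filed and its product quenches rhodamine fluorescence; potency is read from the fitted curve at half-maximal effect; 0% = enzyme reaction without inhibitor and -100% = no enzyme wells; top concentration of the series not given in the record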
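Buffer: 50 mM Hepes-Na pH 7.6, 10 mM MgCl2, 0.01% Nonidet P-40, 0.01% BSA. Enzyme 15 nM, pre-exposed to compound 15 min; substrates then added and fluorescence change tracked over 30 min.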
TRPML1 blocker: inhibitors of human TRPML1 channel | Q9GZU1 | TRPML1-inducible cells, Ca2+ dye fluorescence, FDSS; active compounds read low; inhibition of EC80 agonist-evoked calcium signal | activity change, negative = inhibition, % (test concentration not listed) | 390,000 compounds, 0.02% hits; in the data active means activity change below about -50%; inconclusive means about -30% to -50%; inactive means above about -30%;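 also: stimulus is agonist 54-4 at its EC80 concentration; % is scaled to controls: 0 for no effect and ±100 for the full control effect; compound concentration not given in the record; the text of the record puts the active cut at -80%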
Target sequence (Q9GZU1 whole entry, looked up): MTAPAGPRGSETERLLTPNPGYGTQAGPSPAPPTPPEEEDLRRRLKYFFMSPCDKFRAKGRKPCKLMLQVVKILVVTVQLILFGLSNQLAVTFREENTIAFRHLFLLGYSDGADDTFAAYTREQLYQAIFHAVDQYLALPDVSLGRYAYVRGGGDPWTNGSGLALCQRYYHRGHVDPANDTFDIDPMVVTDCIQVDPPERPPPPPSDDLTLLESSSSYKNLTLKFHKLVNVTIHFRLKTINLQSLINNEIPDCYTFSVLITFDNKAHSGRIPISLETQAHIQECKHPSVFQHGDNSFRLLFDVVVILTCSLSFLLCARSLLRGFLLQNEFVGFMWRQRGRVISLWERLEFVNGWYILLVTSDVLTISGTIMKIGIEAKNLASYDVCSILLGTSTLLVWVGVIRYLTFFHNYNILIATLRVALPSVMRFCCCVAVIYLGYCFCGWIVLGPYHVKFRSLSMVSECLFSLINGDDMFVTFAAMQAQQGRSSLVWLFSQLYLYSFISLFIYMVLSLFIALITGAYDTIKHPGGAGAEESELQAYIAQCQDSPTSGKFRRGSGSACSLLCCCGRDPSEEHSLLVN
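Tet-induced TRPML1-DL cells loaded with Ca8 no-wash calcium dye were read kinetically on FDSS. Compound addition was followed by EC80 agonist 54-4 (4 uM final); inhibition was read over 110 s.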
TRPV1 potentiator: human TRPV1 potentiation; Q8NER1; TRPV1-expressing cells, Fluo-8 calcium influx, capsaicin EC20 potentiation; host cell line not named in the record; control for the full effect not named in the record; potentiation, % at 8.33 µM; 320,000 compounds, 0.02% hits; active means potentiation above 80%; inconclusive means 30% to 80%; inactive means below 30%; also: 0% is about no effect
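Fluo-8 calcium influx in TRPV1-expressing cells, kinetic read (ex 480/em 520 nm). Compound added and read 3 min for agonist activity, followed by capsaicin at EC20 final and 2 min further read for enhancement.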
PINK1 expr mod: PINK1 expression modulation. PINK1 immunofluorescence, high-content cytometry, 24 h. Potency, µM (series often up to 76.6 µM), for inactives: at the top dose activation (PINK1 increase), most hits filed as activators. 410,000 compounds, 0.2% hits. AID 624263; active = well fitted activation curve with a large enough effect; inconclusive = small, poorly fitted or top-dose-only effect; inactive = flat fitted curve, though single readings scatter; cell line not stated here;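 also: potency is read from the fitted curve at half-maximal effect; % of control where 0% means no effect; nearly all actives have a fitted effect of over 65% in size; a mitochondrial uncoupler was the plate control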
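PINK1 protein level read as immunofluorescence by microplate cytometer in a fixed, stained stable cell line after 24 h exposure to five compound concentrations, with CCCP as control.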
ClpP mod: qHTS Assay for Activators of ClpP | 340,000 compounds, 1.9% hits | purified B. subtilis ClpP, FRET peptide cleavage, 20 min | ATP-dependent Clp protease proteolytic subunit (Bacillus subtilis (strain 168)), P80244 | Potency, µM (doses to about 57.5 µM), for the others: at the top dose activity change, negative = active; active = well fitted falling curve with a large enough effect; inconclusive = small, poorly fitted or top-dose-only effect; inactive = no such curve, though single readings can be large or run the other way; also: potency is read from the fitted curve at half-maximal effect; the source files actives as falling curves though it sought activators and does not explain the sign; nearly all actives have a fitted effect of over 65% in size; many hits overshoot -100%
Target sequence (P80244 whole entry, looked up): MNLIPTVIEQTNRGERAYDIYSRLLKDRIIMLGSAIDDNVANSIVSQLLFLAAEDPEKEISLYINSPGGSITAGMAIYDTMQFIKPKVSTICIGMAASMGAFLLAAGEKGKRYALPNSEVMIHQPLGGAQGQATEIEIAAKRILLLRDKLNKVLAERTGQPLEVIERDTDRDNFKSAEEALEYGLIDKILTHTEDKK
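FRET quenching reversal measured ClpP activation: 10 microg/mL B. subtilis ClpP at pH 8 with the FRET-FV decapeptide, read at 430 nm after 320 nm excitation. The 20-min minus 0-min signal was scaled between DMSO/no-enzyme wells and ADEP (5.8 microM final).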
Menin-MLL FL inh: inhibitors of human menin-MLL interaction, wild-type MLL peptide. 290,000 tested, under 10 active. FP activity change, % at 61.4 µM. Fluorescence polarization, fluorescein-MLL peptide displacement from menin; inconclusive = falling polarisation curve, or a change in total fluorescence; inactive = total fluorescence flat and polarisation flat or rising; no compound was filed as active; the % refers to the polarisation; negative = inhibition;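 also: % of control where 0% means no effect; inhibitors lower the polarisation; unlabelled MLL peptide was the positive control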
TRPML1 ag: activates the human TRPML1 channel. Q9GZU1. TRPML1-expressing cells, Ca2+ dye fluorescence, FDSS; host cell line not named in the record; reference of the full effect not given here. activation, % (no concentration beside the values). 410,000 compounds, 0.12% hits; in the data active = activation above about 50%; inconclusive = about 30% to 50%; inactive = below about 30%; also: 0% is about no effect; the text of the record puts the active cut at 80%
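Cells: TRPML1-DL, 1X Tet inducer, ~16 h at 37 degrees C/5% CO2. Dye: ABD Ca8 no-wash + quencher, 45-90 min RT. Read: 10 s baseline, compound add, 110 s agonist phase; 54-4 EC80 (4uM final), 110 s antagonist phase.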
The depositor's hits bear a star; ? = inconclusive; nt = not tested or not shown; & = joins results of further samples; [ ] = dose if it differs, or a comment.

Every second line gives: TRPV1 potentiator, PINK1 expr mod, Sfp inh, Menin-MLL FL inh, TRPML1 blocker, ClpP mod, TRPML1 ag
CCOC(=O)N1CCN(/[N+]([O-])=N/Oc2ccc([N+](=O)[O-])cc2[N+](=O)[O-])CC1
  nt, nt, -28%&4%, 0.0&-1.5, -8, nt, 1.9
COc1ccc2[nH]cc(S(=O)(=O)c3ccc(F)cc3)c(=O)c2c1
  -2, 0.0%, 24%, -1.1, -4, ?, -0.1
COc1ccc(CNC(=O)COC(=O)c2cccn2C)cc1
  nt, -1.1%, nt, nt, -7, -3.7%, 0.3
CN(CCC#N)C(=S)NC(=O)c1ccc(S(=O)(=O)N2CCOCC2)cc1
  2, 0.3%, ?, 1.5, 17, nt, -0.2
O=C(CCC(=O)NC1CCN(Cc2ccccc2)CC1)NCc1ccco1
  11, ?, 19%, 4.9, 17, 0.0%, -0.7
O=C(Cc1cccs1)Nc1nnc(-c2ccncc2)s1
  0, 4.2%[38.3 µM], 16%, 2.5, -5, 28µM*, 0.0
COc1ccccc1C(=O)N/C(=C\c1cn(S(=O)(=O)N(C)C)c2ccccc12)C(=O)N1CCCC1
  21, 1.5%, -4%, 3.4, 48, -2.4%, 0.5
COc1ccc(NC(=O)CN(C)C(=O)c2ccc3[nH]c4c(c3c2)CC(C)CC4)cc1 (configuration not stated)
  19, 0.0%, nt, nt, -1, nt, 0.4
Cc1cc(NC(=O)c2c(-c3c(Cl)cccc3Cl)noc2C)n(C)n1
  -36, 1.1%, 18%, -6.6, -13, nt, 0.4
COc1ccc(C2(c3ccc(OC)cc3)NC(=O)N(CC(=O)NC3CCS(=O)(=O)C3)C2=O)cc1 (configuration not stated)
  nt, 0.7%, nt, nt, -9, 0.8%, -0.3
Cn1c(=O)n(C)c2cc(NC(=O)COc3ccc(F)cc3F)ccc21
  -22, -0.9%, 15%, -0.8, 32, nt, 0.0
Cc1nc2ccccc2cc1OCc1ccc(Cl)cc1
  -15, -4.9%, ?, 4.1, 8, -5.8%, 0.3
COC(=O)c1c(SC)nc2ccccc2c1OCc1ccc(C)cc1C
  nt, 5.1%, nt, nt, -4, -4.8%, 0.2
Cc1ccc(-c2n[nH]c(=O)c3ccccc23)cc1S(=O)(=O)NCCO
  -1, 2.0%, 17%, 6.1, -3, -2.1%, -0.9
Cc1ccc(NC(=O)Nc2nnc(CSCCOc3ccc(Cl)cc3)s2)cc1
  ?, 1.6%, 14%, nt, -10, 0.8%, 0.0
Cc1ccc(SCC(=O)O/N=C(\N)c2ccncc2)cc1
  -19, -0.5%, 1%, -6.5, -3, 0.3%, 0.5
CC(C)c1nn2c(=O)cc(COC(=O)CNC(=O)c3ccccc3)nc2s1
  nt, 2.8%, nt, nt, -14, -4.3%, -0.1
O=C(Nc1nc(-c2cccs2)cs1)c1cccc(S(=O)(=O)N2CCCCC2)c1
  20, -1.1%, 19%, 2.8, 13, ?, 1.2
O=C(ONC1=NCCCCC1)c1ccc(Cl)cc1
  -14, -1.4%, -4%, 3.6, -2, 1.1%, -1.2
COc1ccc(C(=O)NCCc2nnc3ccc(SCC(=O)Nc4cc(C)on4)nn23)cc1
  25, -0.5%, 4%, 4.2, 8, nt, -0.6
CCCC(C)(C)C(=O)N1CCC1(C)C(=O)NS(=O)(=O)c1cccc(Cl)c1 (configuration not stated)
  nt, 2.6%, nt, nt, nt, 2.7%, -0.4
COCCNC(=O)c1ccc(CN2CCC(Cc3ccccc3)CC2)cc1
  1, -0.8%, 0%, 1.8, 0, -3.1%, -0.2
O=C(Nc1ccc(NC(=O)c2cccs2)cc1)c1ccc(Br)o1
  9, 11%, 1%, 2.0, -8, -6.3%, -0.9
CNC(=O)c1c(NC(=O)c2ccco2)sc2c1CCC2
  -4, 3.9%, -10%, nt, 20, -3.0%, 0.4
Cn1c(N2CCN(c3ccccn3)CC2)nc2c1c(=O)n(Cc1ccc(Cl)cc1)c(=O)n2C
  -7, 0.5%, -6%, 1.2, 8, -1.9%, -0.4
C/C(=N\Nc1ccc(Cl)cc1)c1ccccn1
  1, -2.9%[38.3 µM], 0%, 2.0, -17, 1.2%, -0.4
CN(C)S(=O)(=O)c1cccc(NC(=O)c2ccc(Sc3nncn3C)c([N+](=O)[O-])c2)c1
  1, 1.5%, -13%, 3.5, -10, -2.6%, -0.8
COc1ccc(Cl)cc1NC(=O)CSc1nnc2[nH]c(=O)cc(C)n12
  nt, 7.0%, nt, nt, 21, -2.6%, -0.1
S=C(NCc1ccccc1)Nc1ccc2cn[nH]c2c1
  5, -1.9%, -3%, 0.1, 12, nt, -0.7
Cc1cccc(NC(=S)N2CCN(c3ccccc3)CC2)c1
  -2, -0.7%, 13%, -7.3, 30, nt, 0.2

Every second line gives: TRPV1 potentiator, PINK1 expr mod, Sfp inh, Menin-MLL FL inh, TRPML1 blocker, ClpP mod, TRPML1 ag
CC(=O)N1CCN(C(=O)Nc2cccc(C(F)(F)F)c2)CC1
  -5, 0.0%, 17%, 1.3, -18, -0.3%, 0.1
Cc1ccc(SCC(Cc2ccccc2)N2CCN(CCc3ccccc3)CCC2=O)cc1 (configuration not stated)
  nt, nt, ?, 2.2, 22, nt, 2.5
CCO[C@H]1OC(C(=O)O)=C[C@@H](C(C)(C)C)[C@@H]1CCCO
  nt, -0.5%, nt, nt, 7, 2.9%, -0.4
O=C(c1ccc(Br)o1)N(c1ccc(Br)cc1)C1C=CS(=O)(=O)C1 (configuration not stated)
  5, 10%[38.3 µM], 8%, 4.9, 3, -1.2%, -0.4
O=C(NNc1nc2c(F)cccc2s1)c1ccccc1
  13, 0.1%, 7%, -2.0, -6, -0.1%, 1.0
Cc1cc(C)n(-c2nc(N(C)C)nc(N3CCOCC3)n2)n1
  1, -16%[38.3 µM], 11%, 3.4, -5, -1.5%, -0.4
COc1ccc(S(=O)(=O)Nc2ccc(F)cc2)cc1N(C)S(=O)(=O)c1ccc(Cl)cc1
  ?, nt, -12%, -3.5, 3, 0.2%, 0.7
Cc1nn(C(C)C(=O)NCCN2CCCC2)c(=O)c2c1sc1ccccc12 (configuration not stated)
  7, -0.8%, 23%, nt, 8, -21%, -0.5
CCOc1ccc(CCNC(=O)c2cc(=O)[nH]c3ccc(S(=O)(=O)N4CCCCC4C)cc23)cc1OCC (configuration not stated)
  nt, 2.3%, nt, nt, 21, 1.2%, 0.5
Cc1cccc2cc(C#N)c(N3CCN(C)CC3)nc12
  -11, -1.0%, -8%, -2.8, -13, ?, -0.6
C/C(=N\NC(=O)c1nnn(-c2nonc2N)c1-c1cccs1)c1cccnc1
  -9, -0.5%, 14%, nt, -2, -9.3%, -0.5
O=C(c1ccc(CS(=O)c2ccccc2Cl)o1)N1CCOCC1 (configuration not stated)
  4, -0.1%, 21%, nt, -1, -0.7%, 0.5
CC(C)[C@H](NC(=O)c1ccco1)C(=O)N(C)Cc1ccc(C(F)(F)F)cc1
  -26, 2.0%, 15%, 1.4, -3, nt, -0.5
Cc1cccc(NC(=O)CN2C(=O)S/C(=C\c3cccn3-c3cccc(C(=O)O)c3)C2=O)c1
  12, 0.9%, -22%, 15, -8, nt, 0.5
COc1ccc(-c2nnc(NC(=O)c3ccccc3C)o2)cc1
  -2, 1.5%, 7%, 2.6, -7, 0.8%, 0.5
COc1ccc2c(c1)c1ncn(CC3CCCO3)c(=O)c1n2C (configuration not stated)
  -10, -0.6%, 5%, -2.9, -1, nt, 0.1
CSc1ccccc1C(=O)N1CCCCC1
  -1, 0.6%, -11%, -10, -2, 1.8%, 1.9
Cc1cc(C)c(C(=O)COC(=O)CN2C(=O)NC3(CCCC3)C2=O)cc1C
  nt, 2.0%, nt, nt, 19, -1.7%, 0.9
C[C@H]1CN([C@@H](C)CO)S(=O)(=O)c2ccc(Br)cc2O[C@H]1CN(C)C(=O)Cc1ccncc1
  nt, 5.8%, nt, nt, 13, -2.0%, 0.6
Cc1nc2sccn2c1-c1nc(-c2cc3ccccc3o2)cs1
  12, 5.6%, -22%, 4.8, 11, -26%, -0.2
N#Cc1cccc(C#N)c1Oc1ccc(N)cc1
  -8, -0.8%, 0%, 2.0, -12, 1.5%, 1.4
COc1ccc(C23CC4CC(CC(C(=O)O)(C4)C2)C3)c(F)c1
  2, -0.3%, 17%, -0.3, 15, -0.6%, -0.6
O=C(Nc1ccccc1F)C1(c2ccccc2)CC1(Cl)Cl (configuration not stated)
  2, 6.4%, -6%, -0.4, 27, ?, 0.1
COc1ccc(C(=O)C2CCCN(S(=O)(=O)c3cccc(C)c3)C2)c(C)c1 (configuration not stated)
  -2, 0.2%, 3%, nt, 3, -1.3%, 1.1
Fc1ccc(/C=C2\CCCC3=C2Nc2ncnn2C3c2ccc(F)cc2)cc1 (configuration not stated)
  4, -2.1%, ?, 5.1, 3, ?, 1.4
Cc1ccc(S(=O)(=O)NCC(c2ccc(N(C)C)cc2)N2CCc3ccccc32)cc1C (configuration not stated)
  nt, 1.7%, nt, nt, -7, ?, 2.2
COc1cc2c3nc4n(c(=O)c3n(CC(=O)N3CCCC3)c2cc1OC)CCS4
  nt, -0.1%, nt, nt, -4, nt, 0.5
N#Cc1cc[n+](CC(=O)c2ccc(NC(=O)c3ccccc3)cc2)cc1
  -12, 0.0%, 9%, 2.4, 17, 2.1%, 0.0
Nc1c(N(Cc2ccccc2)C(=O)COc2cccc(Cl)c2)c(=O)[nH]c(=O)n1Cc1ccccc1
  -10, 0.5%, nt, nt, 10, -29%, 0.1
CCNc1ccc(C(=O)OCC(=O)NCc2ccc(C)cc2)cc1[N+](=O)[O-]
  3, 3.5%, -3%, 3.4, 9, 2.4%, 0.9
CCN1CCN(CCCNC(=O)C2c3ccccc3C(=O)N(c3ccc(OC)cc3)C2c2ccc(OC)cc2)CC1 (configuration not stated)
  14, 3.4%, -4%, 3.5, -12, -2.0%, -0.5

Gathered by group: the entries above containing a COOH group (3)
Every second line gives: TRPV1 potentiator, PINK1 expr mod, Sfp inh, Menin-MLL FL inh, TRPML1 blocker, ClpP mod, TRPML1 ag
CCO[C@H]1OC(C(=O)O)=C[C@@H](C(C)(C)C)[C@@H]1CCCO
  nt, -0.5%, nt, nt, 7, 2.9%, -0.4
Cc1cccc(NC(=O)CN2C(=O)S/C(=C\c3cccn3-c3cccc(C(=O)O)c3)C2=O)c1
  12, 0.9%, -22%, 15, -8, nt, 0.5
COc1ccc(C23CC4CC(CC(C(=O)O)(C4)C2)C3)c(F)c1
  2, -0.3%, 17%, -0.3, 15, -0.6%, -0.6

Bioassay records from PubChem.
